H5N1 CPE = antiviral screen in MDCK cells, H5N1 avian flu; cytopathic effect, luminescence, 72 h; active compounds read high; no value below 0 was filed and about half of the inactive calls have no number; reference of the scale not given here; inhibition, % at 50 µM; 96,000 tested, 0.07% active; AID 740; in the data active means inhibition above about 25%
An asterisk follows results filed as active; i = inactive. Only part of the results is shown; rates above refer to the full screens.

structure	H5N1 CPE
COc1ccc(CNc2ccc3c(c2)CCC3)cc1OC	i
Cc1ccc(-c2nn(C)c(=O)c3ccccc23)cc1S(=O)(=O)NCCN1CCOCC1	0.3
N#Cc1ccc(-c2ccc(F)cc2)nc1Sc1ccccc1	i
Cc1nc2cc(NC(=O)N3CCC(c4ccccc4)C3)ccc2n1C (stereo unspecified)	0.9
COc1ccc(CCC(=O)NCc2ccco2)cc1	0.5
O=C(C1CCN(S(=O)(=O)c2cccc3nsnc23)CC1)N1CCc2ccccc21	0.3
Cc1nn(CCc2nn[nH]n2)c2nc(C(F)(F)F)cc(C(F)(F)F)c12	0.6
COc1ccnc(N=CNOCc2ccc(C)cc2)c1C#N	i
O=C(COC(=O)C1(c2ccccc2F)CCCC1)N1CCOCC1	i
CCCCN(C)Cc1c(O)ccc2c(-c3ccccc3)cc(=O)oc12	i
CCOC(=O)c1sc(NC(=O)c2c(C)nn(Cc3ccccc3)c2C)cc1C	6.4
COc1ccc(OC)c(Nc2cc(-c3ccccc3)nc(N)n2)c1	i
CN1C(=O)CC(P(=O)(c2ccccc2)c2ccccc2)N(C)C1=O (stereo unspecified)	i
COC(=O)C1=C(N)Oc2cc(C)n(CCc3ccccc3)c(=O)c2C1c1cccnc1 (stereo unspecified)	1.2
O=S(=O)(c1ccc(Oc2ccccc2)cc1)N1CCOCC1	0.5
c1ccc(-c2nn3nnnc3c3ccccc23)cc1	i
COc1ccccc1-c1cc(C(=O)NC(C)c2ccccc2)no1 (stereo unspecified)	0.9
COc1ccc(S(=O)(=O)Nc2cc(C)c(O)cc2C(C)C)cc1	i
O=c1[nH]c(=O)n(Cc2ccco2)c2c1C(C(F)(F)F)(C(F)(F)F)N=C(Cc1ccccc1)N2	0.1
COc1ccc(C(c2nnnn2C2CCCC2)N2CCC(C)CC2)c(OC)c1 (stereo unspecified)	0.9
COc1ccccc1NC(=O)C1=C(C)NC(=O)NC1c1cccc(OC)c1OC (stereo unspecified)	1.9
O=C(CN(Cc1ccccc1)S(=O)(=O)c1ccccc1)N/N=C/c1ccccc1[N+](=O)[O-]	i
CCOc1ccc2nc(SCC#N)c(C#N)cc2c1	1.5
Cc1cn(C(=O)c2cccc(Br)c2)c(C)n1	i
CCN(CC)C(=O)c1ccc(CS(=O)(=O)c2ccc(OC)cc2)o1	1.7
Cc1ccccc1-c1nnc(-c2ccc(Br)cc2)o1	i
Nc1nonc1-c1nc2ccccc2n1CC(=O)N/N=C\c1ccc(-c2ccc(Cl)cc2)o1	i
COc1cccc(C(=O)Nc2cccc(-c3nc4ncccc4o3)c2C)c1	i
CCN(CC)S(=O)(=O)c1ccc(NC(=O)Cn2c(=O)sc3ccccc32)cc1	i
COc1cc(-c2nnc(CSc3nc4ccccc4s3)o2)cc(OC)c1OC	0.7
O=C(c1nc2ncccn2n1)N1CCN(c2ccc(F)cc2)CC1	i
Cn1c(=O)c2c(nc(N3CCCC3)n2CC(O)CO)n(C)c1=O (stereo unspecified)	0.3
O=C(Nn1nnnc1Nc1ccccc1)C12CC3CC(CC(C3)C1)C2	0.2
CC(C)C1C2=C(CC(C)(C)CC2=O)ON1c1ccccc1 (stereo unspecified)	1.6
O=C(c1ccc(Br)o1)N1CCN(c2ccccn2)CC1	i
CCCCCn1c(CN2CCCCC2C)nc2c1c(=O)n(C)c(=O)n2C (stereo unspecified)	3.4
CCCCNC(=O)Nc1cc(C(=O)OC)ccc1C	0.7
Cc1cc(/C=C2\C(=N)N3C(SCc4ccccc4)=NSC3=NC2=O)c(C)n1Cc1ccccc1	i
CCCCC1CCC(/C(N)=N/O)CC1 (stereo unspecified)	i
COCc1cc(C)nc2sc(C(=O)NC3CCCCC3)c(N)c12	i
CCCCCCNC(=O)C(C(=O)OCC)C1CCCCC1 (stereo unspecified)	i
Cc1ccccc1S(=O)(=O)c1c(C)cc(C)n(CC(C)C)c1=O	1.5
Cc1ccc(-n2c(COc3c(C)cccc3C)nnc2SCC(=O)Nc2nccs2)cc1	i
COC(=O)c1[nH]c2cccc(Cl)c2c1NC(=O)CN(C)C1CCCCC1	i
c1ccc(-c2nc(CSc3nnc(-c4cccs4)o3)cs2)cc1	i
CCCCNc1c([N+](=O)[O-])cc(C)cc1[N+](=O)[O-]	i
CCCOc1ccc(CNC(=O)Cn2c(=O)oc3ccccc32)cc1	1.8
O=C(CCCCCN1C(=O)CCC1=O)NCc1ccccc1	i
Oc1ccc(Cl)cc1C1=NCCNC(C(F)(F)C(F)F)=C1	i
CCOC(=O)c1cnc2nc(NCc3ccc(OC)c(OC)c3)[nH]n2c1=O	i
N#CCCn1c(SCC(=O)c2c[nH]c3ccccc23)nc2ccccc21	i
COc1ccccc1N1CCN(C(=O)c2c(C)cc(=O)oc2C)CC1	1.2
O=C(C[n+]1cc2ccccc2c2ccccc21)c1ccccc1	i
Cc1ccc(C(=O)NC2CCCCCC2)cc1N1CCCC1=O	0.2
CCOC(=O)C1=C(CNCc2ccccc2Cl)NC(=O)NC1c1ccc2c(c1)OCO2 (stereo unspecified)	i
Cc1ccc(C(=O)c2cncc(Br)c2)cc1	0.2

The listing continues:
structure	H5N1 CPE
CCOc1ccc(NC(=O)CSC(N)=O)cc1	i
CCn1c(=O)cc(SCC(=O)N2CCN(c3ccccc3OC)CC2)c2ccccc21	1.4
COCCNC(=O)c1cc2c3ccccc3n(C)c2s1	i
COc1ccc(NC(=O)c2ccco2)cc1NC(=O)c1ccc(C)cc1	1.1
FC(F)Sc1ccc(NC(=S)NCC2CCCCC2)cc1	i
Cc1ccc(CN(C(=O)CNC(=O)c2cccs2)C(C(=O)NCC2CCCO2)c2ccccc2)cc1 (stereo unspecified)	i
COc1cc(CNc2cccc(F)c2)cc(Br)c1O	i
CNc1nc(C)cc(C)c1S(=O)(=O)c1ccc(Cl)cc1	0.7
O=C(CN1CCN(C(=O)N2CCOCC2)CC1)Nc1ccc(Br)cc1	i
COc1ccc(CN(Cc2nc3ccccc3c(=O)[nH]2)C(=O)NC2CCCCC2)cc1	i
CCOc1ccc(/C=C/C2=Cc3c(sc(NC(=O)CSc4n[nH]c(N)n4)c3C#N)C(C)(C)C2)cc1	i
CC(C)C(NC=C1C(=O)OC(C)(C)OC1=O)C(=O)O (stereo unspecified)	0.9
CCOC(=O)c1c(C)[nH]c(C(=O)COc2ccc3c(c2)OCO3)c1C	i
Cc1cc(C(=O)N2CCN(c3ccccc3)CC2)c(C)o1	0.2
Cn1c(-c2cc3ccc(OC(=O)C(C)(C)C)cc3oc2=O)nc2ccccc21	1.6
Cc1ccc(CNc2ccc(N3CCOCC3)cc2)s1	i

Of the compounds above, these have a CF3 group:
structure	H5N1 CPE
Cc1nn(CCc2nn[nH]n2)c2nc(C(F)(F)F)cc(C(F)(F)F)c12	0.6
O=c1[nH]c(=O)n(Cc2ccco2)c2c1C(C(F)(F)F)(C(F)(F)F)N=C(Cc1ccccc1)N2	0.1

Further entries.
structure	H5N1 CPE
COC(=O)C1C2C=CC(C3CC23)C1C(=O)OCC(=O)c1ccccc1 (stereo unspecified)	1.1
Cc1cccc(-c2noc(CCCOc3ccc(Cl)cc3Cl)n2)c1	i
Cc1ccc(N2C(=O)CSC2c2ccccn2)cc1Cl (stereo unspecified)	0.5
O=C(CN(c1ccc(Cl)cc1)S(=O)(=O)c1ccccc1)N/N=C/c1ccco1	i
O=C1N(Cc2ccccc2F)c2ccccc2C12OCCCO2	i
CCN(CC)S(=O)(=O)c1ccc(NC2c3ccccc3C(=O)N2CCN2CCOCC2)cc1 (stereo unspecified)	0.2
COc1ccc(-c2nc(-c3ccccc3OC)no2)cc1OC	i
CCOc1ccc(-n2ccnc2SCC(=O)Nc2nnc(C)s2)cc1	0.2
COC(=O)Nc1nc(-c2ccccc2)c(C(=O)c2ccc(Cl)cc2)s1	i
O=C(Cn1nc(-c2ccccc2)ccc1=O)NCc1ccc2c(c1)OCO2	i
COc1ccc2[nH]c(=O)c(CN(CC3CCCO3)C(=O)Nc3ccc(F)cc3)cc2c1 (stereo unspecified)	i
COc1ccc(S(=O)(=O)N(C)CC(=O)Nc2ccc3c(c2)OCO3)cc1	0.1
CC(C)Oc1ccc(/C=N/NC(=O)C2CCCN2S(=O)(=O)c2ccc(Cl)cc2)cc1 (stereo unspecified)	1.7
CCN(CC)C(=O)CSc1nnc(C2CCCCC2)o1	i
O=c1[nH]c2ccccc2nc1Cc1ccccc1	0.5
O=C(NCc1cccnc1)c1cccc2c1C(=O)N(Cc1cccnc1)C2	2.6
O=C(Nc1ccc(Cl)cc1)[C@@H]1[C@@H]2C(=O)N(c3ccc(Cl)cc3)C(=O)[C@@H]2[C@H]2C=CC=NN21	i
CCOc1ccc(OCC)c(NC(=O)C(NS(=O)(=O)c2ccc3c(c2)oc(=O)n3C)C(C)C)c1 (stereo unspecified)	i
Cc1c(Cl)cccc1NC(=O)c1cc(-c2ccccc2O)n[nH]1	4.0
O=C(O)CCc1ccc(-c2cccs2)n1Cc1ccco1	i
CCOC(=O)/C=C1\SCC(=O)N1CC(=O)Nc1ccc(C(C)C)cc1	0.4
Nc1nonc1C(=O)NCCNCc1ccccc1OCc1ccccc1F	i
CS(=O)(=O)N(Cc1ccccc1)c1ccccc1C(=O)N1CCN(c2ccccc2)CC1	i
CCCCc1ccc(Nc2ncccc2C#N)cc1	i

Molecules listed so far that contain a thiophene ring, fused or not (eight):
structure	H5N1 CPE
CCOC(=O)c1sc(NC(=O)c2c(C)nn(Cc3ccccc3)c2C)cc1C	6.4
COCc1cc(C)nc2sc(C(=O)NC3CCCCC3)c(N)c12	i
c1ccc(-c2nc(CSc3nnc(-c4cccs4)o3)cs2)cc1	i
COCCNC(=O)c1cc2c3ccccc3n(C)c2s1	i
Cc1ccc(CN(C(=O)CNC(=O)c2cccs2)C(C(=O)NCC2CCCO2)c2ccccc2)cc1 (stereo unspecified)	i
CCOc1ccc(/C=C/C2=Cc3c(sc(NC(=O)CSc4n[nH]c(N)n4)c3C#N)C(C)(C)C2)cc1	i
Cc1ccc(CNc2ccc(N3CCOCC3)cc2)s1	i
O=C(O)CCc1ccc(-c2cccs2)n1Cc1ccco1	i

Additional structures:
structure	H5N1 CPE
O=C(CSc1nnc(Cc2ccccc2)n1-c1cccc(Cl)c1)N1CCOCC1	3.6
CC1=CCC2C(=O)N(c3nc4ccccc4n3C)C(=O)C2C1 (stereo unspecified)	i
O=C1CN(C(=O)c2cccs2)c2ccccc2N1	0.6
Cc1nn2c3ccccc3nc2c2ccccc12	i
Cc1c(C#N)c(N=CN(C)C)c(C(=O)c2ccc(Br)cc2)n1-c1ccc(Cl)cc1	i
O=C1c2ccccc2C(=O)N1CCCc1nc(-c2cccnc2)no1	0.2
Cc1ccc(NC(=S)N/N=C/c2ccc(Cl)c([N+](=O)[O-])c2)cc1	i
C[C@@]12CC(=O)NC1N(C(=O)c1cccc(C(F)(F)F)c1)C(c1ccccc1OC(=O)c1cccc(C(F)(F)F)c1)C2 (stereo partly specified)	0.8
CC1(C)N=C(N)N=C(N)N1c1ccccc1	1.4
CCC(c1nnnn1C1CCCC1)N1CCN(c2ccccc2)CC1 (stereo unspecified)	2.0
O=C(CNC(=O)c1ccco1)OCC(=O)c1ccccc1	i
O=C(c1ccco1)c1cn(Cc2ccccc2Cl)c2ccccc12	i
CC(=Nc1c(C)n(C)n(-c2ccccc2)c1=O)c1c(O)n(Cc2ccccc2)c(=O)[nH]c1=O	i
Cc1nn(CC(O)Cn2c3c(c4ccccc42)CCN(C)C3=O)c(C)c1Br (stereo unspecified)	i
FC(F)(F)c1cc(C(F)(F)F)c2ccc(N3CCN(c4ncccn4)CC3)nc2n1	i
CCOC(=O)c1c(CN(C)C)n(C)c2ccc(OC(C)=O)cc12	1.0
CCCCN(C)S(=O)(=O)c1c(C)[nH]c(=O)[nH]c1=O	0.5
O=C(O)C1CCCN1C(=O)c1cncc(Br)c1 (stereo unspecified)	0.5
Cc1cc2ncc(-c3ncc(C(F)(F)F)cc3Cl)cn2n1	0.4
COc1ccc(NC(=O)c2cccnc2)c(OC)c1	0.9
Cc1cc(C)nc(NC(=O)CCCC(=O)O)c1	0.6
CN(CC1CCCO1)S(=O)(=O)c1ccc(C(=O)Nc2nc(-c3ccccn3)cs2)cc1 (stereo unspecified)	i
O=C(Nc1cccc(Br)c1)/C(=C\c1cccnc1)NC(=O)c1ccco1	i
Cc1ccccc1NC(=O)c1ocnc1C	i
COC(=O)c1ccccc1NC(=S)NC(=O)CC(C)C	0.2
CCCCc1ccc(NC(=O)COCC)cc1	i
c1ccc(C[n+]2csc3ccccc32)cc1	1.6
S=c1[nH]nc(-c2ccco2)n1/N=C/c1ccc(Br)s1	0.6
COc1cccc(C2c3c(oc4ccc(F)cc4c3=O)C(=O)N2CCCN2CCOCC2)c1 (stereo unspecified)	i
O=C(O)CCCC(=O)Nc1cccc2cccnc12	i
C/C(Cl)=C/Cn1c(N2CCCC2)nc2c1c(=O)n(C)c(=O)n2C	2.4
Cc1ccc(C2C(C#N)=C(N)Oc3c2sc2ccccc32)o1 (stereo unspecified)	0.2
CCOC(=O)C(NS(=O)(=O)c1ccccc1)(C(F)(F)F)P(=O)(OC(C)C)OC(C)C (stereo unspecified)	i
CC(C)(C)NC(=O)Cn1nnc(-c2ccc(S(C)(=O)=O)cc2)n1	0.2
Cc1ccc(NCC(=O)N/N=C\C(Br)=C\c2ccccc2)cc1	i
CCn1c2ccccc2c2nnc(SCC(=O)c3ccccc3)nc21	2.0
O=c1sc(N2CCN(c3ccc(F)cc3)CC2)nc2ccsc12	0.4
